High-throughput results from PubChem BioAssay.
UUG fidelity – alters start codon recognition fidelity in yeast; S. cerevisiae UUG-firefly luciferase reporter, luminescence/redox ratio; activity score, % at 18.7 µM; hit rate 0.13% among 350,000; AID 602363;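 active = replicate mean at a twofold rise or more, about +100% in these data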;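 also: firefly luciferase made from a UUG start codon reports start codon fidelity; reporter light over untreated wells divided by growth signal over untreated wells; some hits fall short of that in this replicate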
CSC inhib – cancer stem cell inhibition; AID 2717; inhibition, % at 7.5 µM; cancer stem cell-like cells viability, luminescence; hit rate 1.1% among 300,000;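 active = mean at 75% or more and at least half the replicates too; inconclusive = mean and replicates disagree; tested in HMLE shEcad cells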;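 also: 0% = median of negative and 100% = median of positive control wells; the first replicate is given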
PABP FP inh – PABP-poly(A) binding inhibition; PABP-poly(A) RNA binding, fluorescence polarization; hit rate 1% among 290,000; P11940; inhibition, % at 35 µM;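 active = 50% or more with normal probe brightness, or confirmed in later tests; inconclusive = above 50% with abnormal brightness, or retests that disagree; inactive = below 50% or failed in later tests; about a fifth of its hits are not listed in these tables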;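 also: calls also rest on retests at 20 µM and on dose response follow-up; controls were probe without protein and protein plus probe with vehicle; some compounds called inactive have numbers as strong as hits; many hits fall short of the cut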
Target sequence (P11940 whole entry, looked up): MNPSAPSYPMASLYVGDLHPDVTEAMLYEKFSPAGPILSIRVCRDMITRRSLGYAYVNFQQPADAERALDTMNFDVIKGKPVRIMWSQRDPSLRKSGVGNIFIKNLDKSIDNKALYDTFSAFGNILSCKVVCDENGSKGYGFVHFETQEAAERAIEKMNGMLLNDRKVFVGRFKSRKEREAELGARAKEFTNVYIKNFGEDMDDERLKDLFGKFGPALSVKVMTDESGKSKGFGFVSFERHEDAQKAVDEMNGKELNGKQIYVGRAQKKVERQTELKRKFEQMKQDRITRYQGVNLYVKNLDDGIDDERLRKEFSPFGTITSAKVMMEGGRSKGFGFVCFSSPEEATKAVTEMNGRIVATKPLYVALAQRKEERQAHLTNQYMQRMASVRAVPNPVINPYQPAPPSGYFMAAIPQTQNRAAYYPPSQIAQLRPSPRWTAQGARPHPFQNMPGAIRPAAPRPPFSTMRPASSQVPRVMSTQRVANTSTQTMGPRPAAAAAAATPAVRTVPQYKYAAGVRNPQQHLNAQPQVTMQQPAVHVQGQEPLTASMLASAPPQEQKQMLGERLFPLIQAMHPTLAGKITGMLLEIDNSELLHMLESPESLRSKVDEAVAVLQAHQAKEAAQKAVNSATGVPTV
Env fusion inh – HIV envelope-mediated fusion inhibition; hit rate 1.1% among 360,000; AID 651610; HeLa-JRFL Env/CEM21 cell fusion, luciferase; inhibition, % at 12.3 µM;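 active = mean replicate inhibition score of at least 50 and every replicate individually at or above 50; inconclusive = only one of the two criteria met; inactive = mean below 50 and not all replicates reaching 50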;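 also: 0% = plate neutral controls and 100% = maraviroc near 300 nM; one replicate is shown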
eIF4H inh – inhibitors of RNA binding by human eIF4H; Q15056; eIF4H fluorescence polarization binding assay; inhibition, % at 35 µM; hit rate 0.94% among 290,000; AID 2012;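 active = 50% or more with normal probe brightness, or confirmed in later tests; inconclusive = above 50% with abnormal brightness, or retests that disagree; inactive = below 50% or failed in later tests; about a fifth of its hits are not listed in these tables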;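 also: calls also rest on retests at 20 µM and on dose response follow-up; 0% = protein and probe with vehicle and 100% = probe without protein; strong numbers were not always called active; many hits fall short of the cut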
MT1-MMP act inh – blocks activation of human MT1-MMP | P50281 | HT1080 RFP-PRO-GFP cells, GFP/RFP ratio fluorescence, overnight; percent of plate control window, DMSO zero | GFP/RFP ratio change, % at 20 µM | hit rate 0.061% among 360,000;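 active = GFP/RFP ratio change of at least 30% with cell ATP level not reduced by more than half and red fluorescence within 50% of control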; also: strong numbers were not always called active
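Material: RFP-PRO-GFP reporter HT1080 cells. Dosing: single-point 20 µM compound, 1% DMSO. Controls: DMSO and RFP-L50D-GFP cell wells. Timing: cells overnight before dosing, compound overnight, 37 °C, 5% CO2. Measure: GFP/RFP fluorescence ratio.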
Rce1 inh – blocks yeast Ras-converting enzyme; hit rate 0.27% among 290,000; calls only; Q03530; yeast membranes, quenched prenylated peptide cleavage fluorescence;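 active = fall in fluorescence gain of 50% or more versus controls, with final raw signal at or below 3038400; inconclusive = same 50% fall but final raw signal above 3038400; inactive = fall in fluorescence gain under 50%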;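 also: plate controls were neutral control wells for no effect and wells lacking membranes for full effect; tested at 10 µM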
eIF4H inh retest – second read-out of eIF4H inh, no call of its own (marks repeat the call); inhibition, %; compound at 20 µM; confirmation average;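 mean of two retest wells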
PABP FP inh retest – recorded beside PABP FP inh, whose call it bears; inhibition, %; compound at 20 µM; confirmation repeats;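 mean of two retest wells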
MT1-MMP act inh RFP – also measured in MT1-MMP act inh; calls as there; RFP signal change, %; measured here: RFP expression control read;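 0 = vehicle wells; hits needed this value within 50% of zero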
The depositor's hits bear a star; i = inactive; ? = inconclusive; nt = no result given. Only part of the results is shown (hit frequency here may not be typical).

SMILES | UUG fidelity | CSC inhib | PABP FP inh | Env fusion inh | eIF4H inh | MT1-MMP act inh | MT1-MMP act inh RFP | Rce1 inh | others
O=C(Nc1ccccc1)C1=C[C@@H](C2CC2)C[C@@H](OCc2ccc(CO)cc2)O1 | 0 | -7 | 8 | -19 | 0 | 0 | -3 | i
NC(=O)C1CCCN(C(=S)Nc2ccccc2)C1 (stereo unspecified) | 0 | 3 | 6 | nt | -1 | -3 | 1 | i
Cc1ccc(SCC(=O)N2CCc3ccccc32)cc1 | -8 | -5 | -7 | nt | 7 | -3 | -1 | i
COc1ccc(CCNc2nnc(C)c(=O)[nH]2)cc1OC | -22 | -15 | -11 | -25 | 0 | 3 | 6 | i
O=C(c1nn(Cc2ccccc2)c(=O)c2ccccc12)N1CCc2ccccc2C1 | -20 | 0 | -4 | nt | -3 | 0 | -7 | i
O=C(CCNS(=O)(=O)c1ccc(OC(F)(F)F)cc1)Nc1cccc(S(=O)(=O)N2CCCC2)c1 | 41 | nt | nt | 8 | nt | 21 | -7 | nt
CCOc1ccc(CNCCCSc2ncccn2)cc1OC | -13 | -9 | 11 | 7 | 15 | -1 | 1 | i
Cc1cc(Br)cn2c(Cc3cccc(F)c3)c(C3CCCCC3)nc12 | 5 | nt | nt | 21 | nt | -8 | -8 | nt
FC(F)(F)Oc1ccc(Nc2nc(N3CCOCC3)nc(N3CCOCC3)n2)cc1 | -33 | -8 | 5 | 15 | -13 | -2 | -9 | i
OC1(c2ccccn2)COc2ccccc2O1 (stereo unspecified) | -12 | -3 | 18 | -9 | 0 | 2 | 0 | i
Cc1c(C(=O)NCCCc2ccccc2)cccc1[N+](=O)[O-] | -10 | -1 | 8 | -33 | -7 | 4 | 2 | i
O=C(c1ccco1)N1CCN(C(=O)c2cnn(-c3ccc(Cl)cc3)c2C2CCNCC2)CC1 | -15 | -1 | 6 | 5 | 3 | 2 | 6 | i
CC(C)c1ccc(NC(=O)COC(=O)c2c[nH]c(=O)[nH]c2=O)cc1 | 7 | nt | -6 | nt | -4 | 0 | -1 | i
O=C(NCCc1ccc(F)cc1)C1CCCO1 (stereo unspecified) | -15 | -7 | 6 | -38 | 6 | 6 | 0 | i
O=C(Nc1ccccn1)C(c1ccccc1)c1ccccc1 | -9 | nt | nt | 13 | nt | 0 | -1 | nt

Five consecutive compounds from above, for reference:
SMILES | UUG fidelity | CSC inhib | PABP FP inh | Env fusion inh | eIF4H inh | MT1-MMP act inh | MT1-MMP act inh RFP | Rce1 inh | others
Cc1c(C(=O)NCCCc2ccccc2)cccc1[N+](=O)[O-] | -10 | -1 | 8 | -33 | -7 | 4 | 2 | i
O=C(c1ccco1)N1CCN(C(=O)c2cnn(-c3ccc(Cl)cc3)c2C2CCNCC2)CC1 | -15 | -1 | 6 | 5 | 3 | 2 | 6 | i
CC(C)c1ccc(NC(=O)COC(=O)c2c[nH]c(=O)[nH]c2=O)cc1 | 7 | nt | -6 | nt | -4 | 0 | -1 | i
O=C(NCCc1ccc(F)cc1)C1CCCO1 (stereo unspecified) | -15 | -7 | 6 | -38 | 6 | 6 | 0 | i
O=C(Nc1ccccn1)C(c1ccccc1)c1ccccc1 | -9 | nt | nt | 13 | nt | 0 | -1 | nt

(more compounds)
SMILES | UUG fidelity | CSC inhib | PABP FP inh | Env fusion inh | eIF4H inh | MT1-MMP act inh | MT1-MMP act inh RFP | Rce1 inh | others
CN(Cc1ccccn1)C(=O)C1CCC(=O)N(Cc2cccc(F)c2)C1 (stereo unspecified) | -10 | -10 | -4 | -5 | -12 | -3 | -2 | i
O=C1CN(C(=O)/C=C/c2cccc(Cl)c2)c2ccccc2N1 | nt | -3 | 0 | 19 | -9 | 0 | -4 | i
Cc1ccc(OC(=O)c2ccc(N3CCOCC3)c([N+](=O)[O-])c2)cc1 | 3 | -2 | 4 | -54 | -6 | 1 | -2 | i
Cc1cc(C)nc(NS(=O)(=O)c2ccc(NS(=O)(=O)c3ccc(F)c(F)c3)cc2)n1 | -11 | nt | nt | 2 | nt | -2 | 1 | nt
C(=N\n1cnnc1)/c1ccccn1 | -14 | 2 | 2 | -13 | 4 | 3 | 0 | i
Cc1ccc(C)c(N2CCN(CCCNC(=O)Cn3cc4c(n3)CCCCC4)CC2)c1 | -9 | 28 | -3 | 35 | -1 | 1 | -9 | i
COc1ccc2[nH]c(C)c(C(=O)CN3CCOCC3)c2c1 | -8 | 6 | 7 | nt | 7 | 2 | 3 | i
CC(=O)Oc1ccc2cc(-c3ccccc3)c(=O)oc2c1 | -17 | 2 | 6 | -18 | -5 | 3 | -3 | i
CCc1c(C)sc(NC(=O)c2cc(-c3cc(OC)ccc3OC)on2)c1C#N | -15 | 30 | -14 | 1 | -7 | 3 | 2 | i
N#CCSc1ccc(-c2nc3ccccc3[nH]2)cn1 | nt | 5 | -3 | -76 | -1 | 6 | -2 | i
COc1cc(/C=C(/NC(=O)c2ccccc2)C(=O)N2CCOCC2)c([N+](=O)[O-])cc1OC | 58 | -7 | 2 | -9 | 23 | 2 | 1 | i
O=C(Cc1cn2ccsc2n1)Nc1nc2c(s1)CCCC2 | -22 | -2 | -4 | nt | -4 | 3 | -1 | i
COc1ccc(S(=O)(=O)CCc2nnc(NC(=O)c3cccs3)s2)cc1 | -14 | -13 | 0 | -63 | -10 | 2 | 3 | i
CCn1c(SCC(=O)N2CCC(C)CC2)nnc1-c1ccco1 | -27 | 10 | 1 | -6 | -8 | -1 | 1 | i
Cc1ccc(/C([O-])=C(/C(=S)NCc2ccco2)[n+]2ccccc2)cc1[N+](=O)[O-] | -2 | 5 | 4 | 1 | 89 | -1 | 4 | i | eIF4H inh retest=-3;PABP FP inh retest=0
CCOc1ccccc1CNC(=O)c1ccc(Sc2ccc(Cl)cc2)c(NC(C)=O)c1 | 0 | 16 | -4 | 2 | -1 | -2 | 0 | i
O=C(CSc1nnnn1-c1ccccc1)c1ccco1 | nt | 3 | 30 | ? | 0 | 1 | 3 | i
Cc1cc(C)c(S(=O)(=O)c2ccc(F)cc2C)c(Cl)n1 | nt | -3 | 2 | -4 | -8 | 1 | -1 | i
O=[N+]([O-])c1cc(/C=N/O)ccc1Oc1cccc(Cl)c1 | nt | 24 | 1 | -38 | -1 | -4 | -2 | i
CCOC(=O)c1ccccc1OCc1cc(/C=N/n2cncn2)ccc1OC | nt | 18 | -1 | -55 | -8 | 6 | -3 | i
CCN1C(=O)c2ccccc2S(=O)c2ccc(C(=O)N3CCCCCC3)cc21 (stereo unspecified) | -4 | -14 | -1 | -33 | -1 | 8 | -1 | i
COc1cc(NC(=O)CCc2c(C)noc2C)c(Cl)cc1C(=O)O | -13 | -12 | nt | 8 | nt | -3 | 4 | nt
CCOC(=O)C[C@H]1c2cc(C(F)(F)F)ccc2S(=O)(=O)N1C(C)C | -14 | -5 | nt | -4 | nt | 2 | 4 | i
CCOC(=O)CNC(=O)Nc1ccccc1C(=O)OC | -25 | -3 | 6 | -16 | 3 | 8 | 5 | i
Cc1cc(Br)c(NC(=O)c2ccccc2[N+](=O)[O-])cc1C | nt | 2 | -3 | -1 | -2 | -3 | 3 | i
Cc1cccc(NC(=O)C(C)Sc2nc3nc(C)cc(C)n3n2)c1 (stereo unspecified) | -25 | -14 | nt | -80 | nt | 3 | -5 | nt
CCOC(=O)CNC(=S)N(CCCN1CCCCCC1)Cc1cccs1 | nt | 4 | 7 | -5 | 0 | -1 | 4 | i
O=C1c2ccccc2NC(c2c(Cl)cccc2Cl)N1Cc1ccccc1 (stereo unspecified) | nt | 23 | 0 | nt | -2 | -13 | -10 | i
CCN(CC)C(=O)CSc1nc2cc3c(cc2c(=O)n1Cc1ccco1)OCO3 | -11 | 1 | -14 | -5 | -7 | 7 | 0 | i
Cc1cc(C)nc(SCC(=O)NC2=NN=C(c3ccc(Br)cc3)CS2)n1 | nt | -3 | -10 | ? | -6 | -39 | -24 | i

Random excerpt: two entries already listed.
SMILES | UUG fidelity | CSC inhib | PABP FP inh | Env fusion inh | eIF4H inh | MT1-MMP act inh | MT1-MMP act inh RFP | Rce1 inh | others
O=C(CSc1nnnn1-c1ccccc1)c1ccco1 | nt | 3 | 30 | ? | 0 | 1 | 3 | i
CCN(CC)C(=O)CSc1nc2cc3c(cc2c(=O)n1Cc1ccco1)OCO3 | -11 | 1 | -14 | -5 | -7 | 7 | 0 | i

New compounds follow.
SMILES | UUG fidelity | CSC inhib | PABP FP inh | Env fusion inh | eIF4H inh | MT1-MMP act inh | MT1-MMP act inh RFP | Rce1 inh | others
Cc1noc(C)c1-c1ccc(C(=O)NCc2cccnc2)c2occc12 | 8 | nt | nt | 16 | nt | 9 | -7 | nt
Cc1ccc(C)c(CN2CCC(CNC(=O)Nc3ccc(Br)cc3F)CC2)c1 | 4 | 5 | 0 | 33 | -4 | 0 | -5 | i
COc1ccc(-c2nc3ccc(C(=O)NCC(OC)OC)cc3nc2-c2ccc(OC)cc2)cc1 | nt | -8 | 5 | 22 | -7 | -1 | -4 | i
CCCCNC(=O)OC(C)CNC(=O)Oc1cccc(C)c1 (stereo unspecified) | -35 | -9 | -9 | nt | -2 | 5 | 2 | i
COc1ccc(C(=O)NC(Nc2ccc(C)cc2)C(Cl)(Cl)Cl)cc1 (stereo unspecified) | 12 | -5 | -3 | nt | -2 | -13 | -28 | i
O=C(NCc1ccncc1)c1ccc(OCc2ccccc2)cc1 | -14 | -6 | nt | 28 | nt | -2 | -18 | i
O=c1oc2ccccc2c2c1ccc1ccccc12 | -13 | nt | nt | -169 | nt | -1 | -1 | nt
Cc1ccccc1CC1(C)C(=O)Nc2ccc(S(=O)(=O)NC3CCCCC3)cc21 (stereo unspecified) | -1 | nt | nt | 17 | nt | -12 | -4 | nt
CCOC(=O)c1c(NC(=O)C2CCCO2)sc2c1CCC2 (stereo unspecified) | -5 | 6 | 8 | 5 | -2 | -21 | -5 | i
O=C(COc1ccc(Cc2ccccc2)cc1)c1ccc(F)cc1 | -5 | 10 | -16 | -60 | -10 | 2 | 6 | i
CN(C)CCCN(C(=O)c1cccc(N2C(=O)CCC2=O)c1)c1nc2cc3c(cc2s1)OCO3 | nt | nt | -11 | -4 | 5 | -2 | 1 | i
Cc1cc(CN2CCC(N3CCC(C(=O)NC4CC4)CC3)CC2)cc(C)c1O | -17 | -4 | 5 | -13 | 4 | 0 | -1 | nt
CN(CC(=O)Nc1ccccc1Cl)C(=O)c1cc(=O)[nH]c2ccccc12 | 6 | 14 | 1 | 2 | 1 | 1 | 6 | i
O=C(c1cccc(F)c1)N1CCc2ccccc21 | -9 | 1 | -6 | nt | -8 | -3 | 4 | i
COc1cccc(-c2cc(C(=O)Nc3cnn(Cc4ccccc4C)c3)no2)c1 | -4 | nt | 9 | 11 | -2 | 3 | -5 | i
COc1ccc(NC(=O)CSc2nccn2-c2ccccc2)c(OC)c1 | -14 | -4 | -16 | nt | 4 | 1 | 0 | i
O=C(CC(c1ccccc1)(c1ccccc1)c1ccccc1)N[C@@H](Cc1ccc(O)cc1)C(=O)O | -1 | -17 | 0 | 4 | -3 | -1 | 5 | i
O=C(O)C1(c2cccc(Cl)c2)CCC1 | 3 | 16 | 0 | -38 | 1 | 2 | 1 | i
N#Cc1cccc(NC(=O)Cc2ccsc2)c1 | -6 | -16 | 6 | 10 | -10 | -1 | 1 | i
